From PubChem
STK33 kinase inh: inhibitors of human STK33 kinase; purified STK33, MBP phosphorylation, ADP-Glo luminescence; 0.073% of 320,000 active; inhibition, % at 10 µM;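 active = inhibition at or above 25%, using the most active replicate where run in duplicate; inactive = inhibition below 25%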
Target sequence (Q9BYT3 whole entry, looked up): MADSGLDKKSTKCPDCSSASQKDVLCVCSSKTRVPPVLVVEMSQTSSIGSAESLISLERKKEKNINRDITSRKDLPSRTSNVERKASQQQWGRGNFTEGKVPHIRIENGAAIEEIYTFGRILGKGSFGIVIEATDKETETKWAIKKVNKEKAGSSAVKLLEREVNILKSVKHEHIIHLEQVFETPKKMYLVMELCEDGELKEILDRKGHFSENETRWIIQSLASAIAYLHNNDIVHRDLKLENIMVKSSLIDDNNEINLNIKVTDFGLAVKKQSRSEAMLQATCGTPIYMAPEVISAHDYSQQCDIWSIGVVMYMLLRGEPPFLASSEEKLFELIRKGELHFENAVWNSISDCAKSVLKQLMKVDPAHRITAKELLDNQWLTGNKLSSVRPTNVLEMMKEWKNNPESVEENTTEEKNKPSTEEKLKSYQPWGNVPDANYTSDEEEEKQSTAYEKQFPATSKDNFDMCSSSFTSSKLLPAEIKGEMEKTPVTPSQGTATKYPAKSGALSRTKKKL
Starred values were filed as active, the others as inactive.

SMILES | STK33 kinase inh
Cc1nn2c(N)c(C#N)cnc2c1-c1ccc(Cl)cc1 | -1.1
COc1ccc(OC)c(S(=O)(=O)NCC2CCCO2)c1 (configuration not stated) | -0.3
CCOC(=O)c1c(N=CN(C)C)c(C#N)n2c1CCC2 | 0.0
Cc1nonc1C(=O)N/N=C/c1ccccc1 | 2.0
COc1cccc(C(=O)Nc2ccc(NC(=O)c3ccco3)nc2)c1 | -1.7
CC1(C)Oc2ccc3ccc(=O)oc3c2/C(=C/Nc2ccc(O)cc2)C1=O | 2.8
CCOC(=O)CCNC(=O)N1CCCC(C(=O)c2ccc3c(c2)OCO3)C1 (configuration not stated) | -2.0
CC(C)(C)NC(=O)Cn1nnc(-c2ccc(Cl)cc2)n1 | -3.5
COc1ccc(C(=O)NCC(c2cccs2)N2CCc3ccccc32)cc1OC (configuration not stated) | 0.3
COc1cc([N+](=O)[O-])ccc1NC(=O)Nc1cccnc1 | -1.2
NC(=O)C(c1ccc(Cl)cc1)c1ccc(Sc2ccc(Cl)cc2)nn1 (configuration not stated) | -2.4
CCc1cccc(NC(=O)Cn2c(-c3ccccc3)cc(C(C)=O)c2C)c1 | -2.2
CC1(C)CC(=O)C2=C(C1)NCN(CCCN1CCOCC1)C2 | 1.7
CCS(=O)(=O)N1Cc2ccccc2CC1C(=O)NCCc1c[nH]c2ccccc12 (configuration not stated) | -0.5
COc1cccc(-c2nc(-c3ccc4c(c3)NC(=O)CO4)cs2)c1 | -1.5
CC(C)C(C(=O)NCC1CCCO1)N(Cc1ccco1)C(=O)CNS(=O)(=O)c1ccccc1 (configuration not stated) | -0.3
NC(=O)c1nsc(C(=O)N(CC(=O)NC2CCCC2)c2cnc3ccccc3c2)c1N | -0.7
Cc1ccc(C(=O)OC(C)CN2CCN(C)CC2)cc1 (configuration not stated) | -0.9
CCCS(=O)(=O)N1CCN=C1SCc1ccc(F)cc1 | -1.0
CCOc1ccccc1CNC(=O)C1CCCN(c2ncnc3c2nc2n3CCCCC2)C1 (configuration not stated) | -2.3
Cc1c(NC(=O)c2ccc3ncccc3c2)c(=O)n(-c2ccccc2)n1C | -0.6
Cc1ccc2nc(SC(C(=O)c3ccccc3)c3ccccc3)nc(C)c2c1 (configuration not stated) | -0.2
Cc1nc(SCC(=O)N2CCOCC2)c2c(=O)n(C)c(=O)n(C)c2n1 | 0.4
Cc1ccccc1OCC(O)Cn1c(NCCN(C)C)nc2c1c(=O)n(C)c(=O)n2C (configuration not stated) | -0.5
COc1cc(NC(=O)C2CCN(c3cnccn3)CC2)cc(OC)c1OC | -0.1

The list goes on:
SMILES | STK33 kinase inh
COc1ccc(NC(=O)C(=O)NNC(=O)c2ccc(Cl)cc2Cl)cc1 | -4.3
c1n[nH]c(NCc2ccc3c(c2)OCO3)n1 | -0.7
Cc1cc(C)cc(N(CC(=O)NC2CCCC2)C(=O)CCC(=O)Nc2cc(C)on2)c1 | -1.1
O=C(COC(=O)/C=C/c1ccc(C(F)(F)F)cc1)NCCC1=CCCCC1 | -1.0
CCOC(=O)c1cnn(-c2cc(Oc3ccccc3)ncn2)c1N | -2.0
COc1cc(C(=O)NCC(=O)N/N=C/c2ccc(-c3cccc([N+](=O)[O-])c3)o2)cc(OC)c1OC | 0.1
CC1CCC(N2CCN(c3ccc([N+](=O)[O-])cc3)CC2)CC1 (configuration not stated) | -1.4
COc1ccc(NC(=O)CSc2nnc(Cc3cccn3C)n2-c2ccc(C)cc2)cc1OC | -0.5
CCOC(=O)CSc1nc2ccccc2c(=O)n1CCCCCC(=O)NCc1ccco1 | 0.4
CN(Cc1ccccc1)S(=O)(=O)c1ccc(Cl)nc1 | -0.8
CCN(c1ccccc1)S(=O)(=O)c1ccc(Oc2ccc([N+](=O)[O-])cc2)nc1 | 0.0
c1ccc(N2CCN(c3cnccn3)CC2)nc1 | -0.1
COc1ccc2c(c1)CC[C@@H]1[C@@H]2CC[C@]2(C)[C@@H](C(C)=O)C[C@@H]12 | -0.6
C#CCSc1nnc(CSc2nc3ccccc3s2)n1-c1ccccc1 | 1.1
COCCN(C(=O)CCC(=O)Nc1nccs1)C(C(=O)NCCC(C)C)c1ccc(OC)cc1 (configuration not stated) | 0.4
O=C(CSc1nnc(-c2ccco2)n1-c1ccccc1)N1CCOCC1 | 0.2
Cc1nc([N+](=O)[O-])c(C(=O)OCc2ccccc2F)n1C | -0.4
COc1ccccc1OCc1nnc(SCC(=O)N2CCCC2)o1 | -0.5
Cc1ccc(Cn2ccc(NC(=O)c3c(-c4ccccc4Cl)noc3C)n2)cc1 | -0.2
CCCS(=O)(=O)NCc1cn2c(C)csc2n1 | -0.4
C=CCOc1cccc(C2C(C(=O)c3ccc(C)o3)=C(O)C(=O)N2CCCn2ccnc2)c1 (configuration not stated) | 0.8
Fc1cc(F)c2nc(Nc3nc4c(F)cccc4s3)sc2c1 | -1.5
COc1ccc(C(CNC(=O)c2cccc(S(=O)(=O)Nc3ccc(C)cc3)c2)N2CCOCC2)cc1 (configuration not stated) | 0.2
CCSC1=NC2(CCCCC2)Nc2sc3c(c21)CCCC3 | -0.7
CCCCCC1=NN2C(=O)CC(=O)N=C2S1 | 0.1

Going on with the list.
SMILES | STK33 kinase inh
O=c1[nH]nc(CNc2ccc(C(F)(F)F)cc2)c2ccccc12 | -1.7
O=C(O)CN1C(=O)CCS(=O)c2ccccc21 (configuration not stated) | 5.7
CSc1ccccc1NC(=O)c1csc(C)c1 | -0.6
Cc1oc(-c2ccc(Cl)cc2)nc1CS(=O)CC(=O)NCCCN(C)C1CCCCC1 (configuration not stated) | -0.9
Nc1nc(-c2ccccc2)nn1S(=O)(=O)c1ccccc1 | -2.8
Cc1ccccc1NC(=O)Nc1cc(S(N)(=O)=O)ccc1C | -0.2
CC1CN(C(=O)Cn2c(C(F)(F)F)nc3ccccc32)CC(C)O1 (configuration not stated) | -0.7
Cc1ccc(C(=O)Nc2ccc(S(=O)(=O)N3CCCC3)cc2)cc1 | 0.5
CCOC(=O)c1c(C)[nH]c(C(=O)N(C)Cc2cccc(OC)c2OC)c1C | 0.9
CCC(=O)NC(NC(=S)Nc1c(C)n(C)n(-c2ccccc2)c1=O)C(Cl)(Cl)Cl (configuration not stated) | -0.7
CCOC(=O)C1CCCN(C(=O)C2CCN(C(=O)Nc3ccccc3)CC2)C1 (configuration not stated) | -0.3
c1ccc2c(Nc3ccc4c(c3)OCCO4)c3c(nc2c1)CCCC3 | 1.1
CC(=O)N(CCCc1ccc(C(C)(C)C)cc1)CCCN(C)C | -0.6
CCOC(=O)[C@@H]1[C@H]2COc3ccc(Br)cc3[C@H]2N2C(=O)N(c3ccc(F)cc3)C(=O)[C@@]12C | -0.5
COc1ccc(OC)c(CNCc2ccc3c(c2)OCO3)c1 | -0.8
CC1CCN(c2nc3c(c(=O)[nH]c(=O)n3C)n2CCCc2ccccc2)CC1 | -0.3
C(=C\c1ccncc1)/c1ccncc1 | -0.4
Cc1cc(C)c2sc(NC(=O)c3ccc(N4C(=O)CCC4=O)cc3)nc2c1 | -3.1
CCOC(=O)c1sc(N)c(C#N)c1COC(=O)CNC(=O)c1ccccc1 | -5.0
O=S(=O)(c1ccc2c(c1)OCCO2)N1CCN(Cc2ccccc2)CC1 | -0.1
Cc1cc(=O)oc(C)c1C(=O)Nc1ccc2ncccc2c1 | 0.7
O=C(Cn1ccc([N+](=O)[O-])n1)N1CCc2ccccc21 | 0.7
CN1CCN(CCNC(=O)Nc2ccccc2[N+](=O)[O-])CC1 | 1.3
Cc1ccc(N=Nc2c(N)nn3c(C)cc(C)nc23)cc1 | 0.6
CN(CCc1ccccn1)C(=O)c1ccc(OC2CCN(Cc3ccccn3)CC2)cc1 | 3.5

Further structures
SMILES | STK33 kinase inh
O=C(Nc1cccnc1)c1ccc(COc2ccccc2Br)cc1 | -0.4
Cc1noc(C)c1-c1ccc2nc[nH]c(=O)c2c1 | 1.9
CC(=O)Nc1ccc(S(=O)(=O)N2CCC3(CC2)CC(=O)c2ccccc2O3)cc1 | -0.2
CSC(=O)CC(=O)NC(=O)c1ccccc1 | 0.4
COc1cc2c(cc1OC)CN(C(=O)CCCN1C(=O)c3ccccc3C1=O)CC2 | 0.9
CSc1nc2sc3c(c2c(=O)[nH]1)CCc1ccccc1-3 | -1.4
C=CCNC(=S)N/N=C/c1ccc(-c2cccc([N+](=O)[O-])c2)o1 | 0.2
CC(=O)Nc1ccc(NC(=O)C(C)OC(=O)CC2CCCCC2)cc1 (configuration not stated) | -1.2
COc1cccc(NC(=O)n2ncc3c(C)cccc32)c1 | -2.9
COc1ccc(NC(=O)CC2SC3=NCCN3C2=O)cc1 (configuration not stated) | 0.8
Cc1ccc(C)c(NS(=O)(=O)c2cc(C(=O)NCc3ccco3)ccc2C)c1 | -1.7
Cc1cccc(NCC(=O)N/N=C\c2cccc(Oc3ccccc3)c2)c1 | 0.6
Cc1cccc(NC(=O)NCc2ccccn2)c1 | -4.0
c1cncc(CNc2c3c(nc4nnnn24)CCCC3)c1 | -1.1
COc1ccc(N2C(C)=CS/C2=C(/C#N)c2nnc(N3CCOCC3)n2-c2ccccc2)cc1 | -0.9
O=C(Nc1nc2c(s1)CCc1ccccc1-2)c1cccs1 | 0.6
COc1ccc(NC(=O)c2ccc(COc3ccccc3Br)o2)c(OC)c1 | 0.3
O=C(O)CCC(=O)Nc1nc(-c2ccccc2)cs1 | 2.1
COCCCN(C(=O)c1ccco1)c1nc(-c2cc(OC)ccc2OC)cs1 | -1.5
CCOc1ccc(N2CC(C(=O)N3CCCCC3)CC2=O)cc1 (configuration not stated) | -3.5
O=C(Cc1ccccc1[N+](=O)[O-])NCc1ccc(Cl)cc1Cl | -0.1
CCC(=O)N1CCN(c2cc3c(cc2F)c(=O)c(C(=O)O)cn3CC)CC1 | -0.1
Cc1nc(NC(=O)COC(=O)CCC(=O)c2cccs2)c(Cl)cc1Cl | -1.3
CCN(Cc1ccncc1)C(=O)CCc1nnc(CCC2CCCCC2)o1 | -1.3
CCNC(=O)[C@H]1O[C@@H](n2cnc3c(N)nc(NCCc4ccc(CCC(=O)O)cc4)nc32)[C@H](O)[C@@H]1O | 0.1

2 records drawn at random from those above, as already listed:
SMILES | STK33 kinase inh
Cc1nn2c(N)c(C#N)cnc2c1-c1ccc(Cl)cc1 | -1.1
CC(=O)N(CCCc1ccc(C(C)(C)C)cc1)CCCN(C)C | -0.6

(more compounds)
SMILES | STK33 kinase inh
O=C(Cc1ccccc1)Nc1ccc(C(=O)Nc2ccc(O)cc2)cc1 | 0.3
O=C1N(c2cccc3ccccc23)C(c2ccccc2)N2CCCN12 (configuration not stated) | 0.3
COCCCNC(=S)N1CCCN(c2nc3cc(C)ccc3cc2C#N)CC1 | 1.4
O=C(Cn1nc(C(=O)O)c2ccccc2c1=O)Nc1cc(Cl)cc(Cl)c1 | 0.9
CCC(=O)Nc1cccc(NC(=S)NC(=O)c2ccc(C)cc2)c1 | 0.4
CC(CCc1ccccc1)NC(=O)CNC(=O)c1cccs1 (configuration not stated) | -0.9
O=C(NC1CCCC1)C1CCC(=O)N1C1CCCCC1 (configuration not stated) | -0.3
COc1cccc(OCc2cc(C(=O)NCC3CCCCC3)no2)c1 | -0.2
CC(=O)c1cnc2cc(C)nn2c1C | 0.3
COc1cc(-c2nc(C)c(C(C)=O)n2O)ccc1OCC(=O)Nc1ccc(F)cc1 | -1.2
COc1ccc(C)cc1NC(=O)c1nnn(Cc2cccc(F)c2)c1N | -0.1
COc1ccc(CN(CC(=O)NCc2ccc(F)cc2)C(=O)CCC(=O)Nc2ccccn2)cc1 | 0.8
Cc1ccc(C)c(NC(=O)CSc2nnc(Cc3cccn3C)n2-c2ccc(F)cc2)c1 | -2.3
CC(C)C(=O)Nc1cc(C(F)(F)F)ccc1-n1ccnc1 | -1.7
O=c1c2ccccc2nc(-c2ccccc2)n1Cc1ccco1 | -0.3
O=C(c1ccco1)N1CCN(S(=O)(=O)c2cccc(Cl)c2)CC1 | -1.4
CCOC(=O)c1cnc2c(C#N)c(C)nn2c1-c1ccccc1 | 1.0
O=C1C2ON(c3ccccc3)C(c3cccnc3)C2C(=O)N1Cc1ccccc1 (configuration not stated) | -0.4
CCn1c(SCc2c(F)cccc2Cl)nnc1-c1ccco1 | 0.8
O=C1N=c2ccccc2=C1c1sc(Nc2cccc(O)c2)nc1O | 3.5
COc1cc(C2C(C(C)=O)=C(O)C(=O)N2CCN(C)C)ccc1O (configuration not stated) | 0.9
COc1ccnc(Oc2ccccc2)c1C(=O)N/C=N/OCc1ccccc1F | -0.8
NS(=O)(=O)c1ccc(CCNC(=O)c2ccc(=O)[nH]c2)cc1 | 3.3
CCOC(=O)c1c(/N=C/C2C(=O)CCCC2=O)sc2c1CCCC2 | 0.2
CC(OC(=O)Cn1[nH]c(=O)c2ccccc2c1=O)C(=O)Nc1cccc(Cl)c1 (configuration not stated) | 3.4
Nn1cc(-c2ccccc2)nc1SCC(=O)N1CCN(S(=O)(=O)c2ccccc2)CC1 | -0.5

19 structures already listed, arranged by molecular weight, highest first.
SMILES | STK33 kinase inh
CC(C)C(C(=O)NCC1CCCO1)N(Cc1ccco1)C(=O)CNS(=O)(=O)c1ccccc1 (configuration not stated) | -0.3
CCOC(=O)CSc1nc2ccccc2c(=O)n1CCCCCC(=O)NCc1ccco1 | 0.4
NC(=O)c1nsc(C(=O)N(CC(=O)NC2CCCC2)c2cnc3ccccc3c2)c1N | -0.7
NC(=O)C(c1ccc(Cl)cc1)c1ccc(Sc2ccc(Cl)cc2)nn1 (configuration not stated) | -2.4
CCC(=O)N1CCN(c2cc3c(cc2F)c(=O)c(C(=O)O)cn3CC)CC1 | -0.1
CCn1c(SCc2c(F)cccc2Cl)nnc1-c1ccco1 | 0.8
Fc1cc(F)c2nc(Nc3nc4c(F)cccc4s3)sc2c1 | -1.5
CC1(C)CC(=O)C2=C(C1)NCN(CCCN1CCOCC1)C2 | 1.7
COc1ccc2c(c1)CC[C@@H]1[C@@H]2CC[C@]2(C)[C@@H](C(C)=O)C[C@@H]12 | -0.6
CN(Cc1ccccc1)S(=O)(=O)c1ccc(Cl)nc1 | -0.8
Cc1cc(=O)oc(C)c1C(=O)Nc1ccc2ncccc2c1 | 0.7
Cc1nc([N+](=O)[O-])c(C(=O)OCc2ccccc2F)n1C | -0.4
c1cncc(CNc2c3c(nc4nnnn24)CCCC3)c1 | -1.1
O=C(O)CCC(=O)Nc1nc(-c2ccccc2)cs1 | 2.1
CCOC(=O)c1c(N=CN(C)C)c(C#N)n2c1CCC2 | 0.0
CCCS(=O)(=O)NCc1cn2c(C)csc2n1 | -0.4
O=C(Cn1ccc([N+](=O)[O-])n1)N1CCc2ccccc21 | 0.7
Cc1cccc(NC(=O)NCc2ccccn2)c1 | -4.0
c1n[nH]c(NCc2ccc3c(c2)OCO3)n1 | -0.7

The list is partial, and most or all hits are left out here.
